KCNQ2 inh: KCNQ2 potassium channel inhibitors, primary screen, cell-based, CHO-K1, FluxOR thallium flux, B-score (AID 2156); Potassium voltage-gated channel subfamily KQT member 2 (Rattus norvegicus), O88943; 20 min; active compounds read low; only compounds with negative scores are shown here; some inactives read as strong as hits; B-score at 10 µM; 310,000 tested, 1.1% active;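 active means fluorescence ratio B-score at most minus 3 library SDs, with starting brightness B-score within 2 library SDs, cut at about -5.5 in these data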
Target sequence (O88943 whole entry, looked up): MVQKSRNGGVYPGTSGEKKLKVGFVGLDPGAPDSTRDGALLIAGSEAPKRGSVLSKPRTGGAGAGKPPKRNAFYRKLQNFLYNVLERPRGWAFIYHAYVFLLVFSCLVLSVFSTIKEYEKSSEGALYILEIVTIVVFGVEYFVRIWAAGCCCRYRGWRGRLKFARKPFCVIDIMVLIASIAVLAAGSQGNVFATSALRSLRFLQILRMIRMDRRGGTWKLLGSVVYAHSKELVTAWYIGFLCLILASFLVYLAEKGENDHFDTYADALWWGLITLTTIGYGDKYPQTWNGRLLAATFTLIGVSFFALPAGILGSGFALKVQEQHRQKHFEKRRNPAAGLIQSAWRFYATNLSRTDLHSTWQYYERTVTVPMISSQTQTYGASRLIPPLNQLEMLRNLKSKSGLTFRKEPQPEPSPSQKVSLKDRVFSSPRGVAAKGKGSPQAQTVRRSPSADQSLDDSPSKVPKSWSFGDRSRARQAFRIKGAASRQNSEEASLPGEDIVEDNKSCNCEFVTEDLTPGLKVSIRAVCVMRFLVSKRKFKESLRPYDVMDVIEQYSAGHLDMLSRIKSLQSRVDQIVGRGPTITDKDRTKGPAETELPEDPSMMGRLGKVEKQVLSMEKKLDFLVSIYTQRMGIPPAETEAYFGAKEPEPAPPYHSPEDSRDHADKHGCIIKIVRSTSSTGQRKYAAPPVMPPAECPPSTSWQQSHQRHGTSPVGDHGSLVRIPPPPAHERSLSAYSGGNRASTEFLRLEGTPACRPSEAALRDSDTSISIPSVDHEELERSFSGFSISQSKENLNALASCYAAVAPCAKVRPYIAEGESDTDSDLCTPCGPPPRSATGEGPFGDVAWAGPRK
KCNQ2 inh baseline: also measured in KCNQ2 inh; calls as there; B-score; measured here: initial fluorescence intensity artifact check;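 brightness before thallium and not channel activity; 0 = typical well and far values either way flag optical interference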
Active calls of the source: *; i = inactive.

SMILES | KCNQ2 inh | KCNQ2 inh baseline
C=CCN1C(=O)C2(OCCCO2)c2c(C)ccc(C)c21 | i | -0.21
Cc1c(C(=O)N2CCC(C)CC2)sc2ncnc(N(C)c3ccccc3)c12 | i | -0.22
COc1ccc(-c2nc3ccncc3[nH]2)cc1OC | i | -0.4
CC1Cc2ccccc2N1C(=O)c1ccnc(C(C)(C)C)c1 (stereo not given) | i | -0.06
COc1ccc(NC(=O)/C(=C\c2ccco2)NC(=O)c2ccco2)cc1 | i | 0.36
Cc1ccc(N2CC(C(=O)Nc3ccccn3)CC2=O)cc1 (stereo not given) | i | 0.27
c1ccc2c(c1)[nH]c1ccncc12 | i | 1.13
COc1ccc(CCN2CC(C(=O)N(C)Cc3c(C)n[nH]c3C)CCC2=O)cc1 (stereo not given) | i | -0.34
COCCN=C1Sc2nc3c(C)cccc3cc2CN1Cc1ccco1 | i | -0.41
CCCc1nnc(SCC(=O)N2CCCC2)n1Cc1ccco1 | i | 1.48
CN(C)CC(C)(C)CNC(C(=O)Nc1ccc(Cl)cc1C(F)(F)F)c1ccccc1 (stereo not given) | i | 1.87
Cc1ccccc1C(=O)NC(NC(=O)c1ccccc1C)c1cccc([N+](=O)[O-])c1 | i | -0.92
COc1ccc2nc3sc(C(=O)NCc4cccs4)c(N)c3cc2c1 | i | 0.47
Cc1ccccc1S(=O)(=O)Cc1ccc(C(=O)NC2CCCCC2C)o1 (stereo not given) | i | -0.37
COCCNC(=S)Nc1cccc2cnccc12 | i | 0.37
O=C(NCCc1ccc(C(F)(F)F)cc1)C1CCC(=O)N(CCc2cccc(F)c2)C1 (stereo not given) | i | -0.53
Cc1ccc(OCc2nn3c(-c4ccco4)nnc3s2)cc1 | i | -0.14
O=C(COC(=O)CCS(=O)(=O)c1ccc(Cl)cc1)NCCc1ccccc1 | i | -0.01
CN1CC=C2C(C#N)=C(N)C(C#N)(C#N)C(c3cccc(Cl)c3Cl)C2C1 (stereo not given) | i | 8.77
O=C(NC1CCCc2ccccc21)C1CCCO1 (stereo not given) | i | 1
O=C(NCc1ccccc1)C1=C[C@H](c2ccc3c(c2)OCO3)C[C@H](OCCCCO)O1 | i | -0.88
CC(CS(=O)(=O)c1ccc2c(c1)NC(=O)CS2)C(=O)N1CCN(c2cccc(Cl)c2)CC1 (stereo not given) | i | -1.15
C=CCN1C(=O)C(CC(=O)Nc2ccc(OC)cc2)SC1=Nc1ccc(S(N)(=O)=O)cc1 (stereo not given) | i | -1.4
COc1cc(CNC(C)(C)CO)cc(Br)c1OCc1ccc(Cl)cc1 | i | -0.1
COc1ccc(NC2CCCN(C(=O)c3oc(C)cc3C)C2)cc1OC (stereo not given) | i | -1.31

A second format for part of the listing above:
| SMILES | KCNQ2 inh | KCNQ2 inh baseline |
| --- | --- | --- |
| CN1CC=C2C(C#N)=C(N)C(C#N)(C#N)C(c3cccc(Cl)c3Cl)C2C1 (stereo not given) | i | 8.77 |
| O=C(NC1CCCc2ccccc21)C1CCCO1 (stereo not given) | i | 1 |
| O=C(NCc1ccccc1)C1=C[C@H](c2ccc3c(c2)OCO3)C[C@H](OCCCCO)O1 | i | -0.88 |

Other compounds:
SMILES | KCNQ2 inh | KCNQ2 inh baseline
COCCCN1C(=O)C(=O)/C(=C(/O)c2ccc3c(c2)OCCO3)C1c1ccc(C(=O)OC)cc1 (stereo not given) | i | -1.86
O=C(NCCN1CCCC1=O)Nc1ccccc1 | i | 0.23
Oc1ccc(Oc2ccc3c(C(F)(F)F)cc(C(F)(F)F)nc3n2)cc1 | i | -0.81
Cc1cc2cc(CCNC(=O)CCCc3ccccc3)c(=O)[nH]c2cc1C | i | -0.37
Cn1cccc1C(=S)N=P(C1CCCCC1)(N1CCOCC1)N1CCOCC1 | i | 2.61
CC1CCCN(C(=O)C(C)Sc2nc(-c3ccccc3)cc(C(F)(F)F)n2)C1 (stereo not given) | i | -0.83
COc1ccccc1NC(=O)CSc1ncc(CO)n1Cc1ccc(F)cc1 | i | 2.24
Cc1sc2nc(CSc3nc4ccccc4s3)[nH]c(=O)c2c1C | i | 0.26
CCC(C)NC(=O)C1CCN(C(=O)COc2ccc3c4c(c(=O)oc3c2C)CCCC4)CC1 (stereo not given) | i | -1.02
COC(=O)c1ccc(NS(=O)(=O)NC(=O)c2c[nH]c3ccccc23)cc1 | i | 1.06
O=C(/C=C/c1ccc([N+](=O)[O-])cc1)NCc1ccc2c(c1)OCO2 | i | 1.18
Cc1ccsc1C(=O)NCCc1ccc(S(N)(=O)=O)cc1 | i | 1.12
CCOC(=O)Nc1nnc(-c2cccc(OC)c2)s1 | i | 0.47
C[C@H](O)c1[nH]c2cc(F)ccc2c1[C@H](C)O | i | 0.56
COc1ccc(CN2C(=O)CN=C2Nc2ccc(C)cc2C)cc1 | i | 0.02
COc1ccc(-n2nc(N)c3c(=O)oc(N(C)C)nc32)cc1 | i | 0.38
CCn1nc(NC(=O)c2cccs2)c2cc3ccccc3nc21 | i | 0.29
COc1ccc(C(=O)NN(C)c2nc(-c3ccccc3)cc(C)c2S(C)(=O)=O)cc1 | i | 0.59
S=c1[nH]nc(-c2ccc3ncccc3c2)n1-c1ccc2c(c1)OCCO2 | i | -1.77
CC(Sc1nnc(C(C)N(C)C)n1-c1ccc(Cl)cc1)C(=O)Nc1ccc2c(c1)OCO2 (stereo not given) | i | -0.03
CC1Nc2ncnc(N3CCN(c4ccccn4)CC3)c2N(Cc2ccccc2)C1=O (stereo not given) | i | 0.75
COc1ccc(-c2cc3ccccc3n2CC(O)CN2CCOCC2)cc1 (stereo not given) | i | -2.42
CCOC(=O)C1(Cc2ccccc2C(F)(F)F)CCN(Cc2ccc(COC)o2)CC1 | i | -0.99
COc1cccc(-n2c(=S)sc3c(=O)n(-c4ccccc4C)c(SCC(=O)O)nc32)c1 | i | -0.68
O=C(NC1CC1)c1cccc(Nc2ccc(-c3ccc4c(c3)OCCO4)nn2)c1 | i | -0.93

In another format: entries from further up
KCNQ2 inh	KCNQ2 inh baseline	structure
i	-1.77	S=c1[nH]nc(-c2ccc3ncccc3c2)n1-c1ccc2c(c1)OCCO2
i	1.12	Cc1ccsc1C(=O)NCCc1ccc(S(N)(=O)=O)cc1

(list continues)
SMILES | KCNQ2 inh | KCNQ2 inh baseline
COCCCN1CC(=O)N2C(c3cccc(OC)c3)c3[nH]c4ccccc4c3C[C@H]2C1=O (stereo not given in full) | i | 1.84
CCOc1ccccc1NC=C1C(=O)OC(C)(C)OC1=O | i | 1.22
Cc1ccc(C)c(NC2=NCC(=O)N2C2CCCCC2)c1 | i | 0.24
O=C(NC(c1ccc(Cl)cc1)c1cc(Cl)c2cccnc2c1O)c1cccnc1 (stereo not given) | i | 2.26
O=C1CN(C(=O)COC(=O)/C=C/c2ccc(OC(F)F)cc2)c2ccccc2N1 | i | 1.02
O=[N+]([O-])c1ccc2c(c1)ncn2CCc1ccccc1 | i | -0.22
O=C(/C=C/c1ccccc1Cl)N1CCCN(C(=O)/C=C/c2ccccc2Cl)CC1 | i | -0.13
CN(CC(=O)OCC(N)=O)S(=O)(=O)c1ccc(Cl)cc1 | i | 0.14
O=C(CN(Cc1ccccc1Cl)C(=O)CNS(=O)(=O)c1ccc(F)cc1)NCC1CCCO1 (stereo not given) | i | 0.49
C=CCOc1cccc(C2c3c(oc4ccccc4c3=O)C(=O)N2c2ccccn2)c1 (stereo not given) | i | 1.67
CCC(=O)N1CCN(c2ccccc2NC(=S)NC(=O)c2ccco2)CC1 | i | 1.18
N#Cc1nc(COc2ccccc2F)oc1NCc1ccc(F)cc1 | i | -0.01
CS(=O)(=O)Nc1ccc(C2=NN(C(=O)CCCC(=O)O)C(c3cccs3)C2)cc1 (stereo not given) | i | -1.55
O=C(Nc1ccccc1F)C(=Cc1sc(N2CCOCC2)nc1-c1ccccc1)C(=O)Nc1ccccc1F | -6.47* | 2*
COc1ccccc1N1CCN(S(=O)(=O)c2ccc(NC(C)=O)cc2)CC1 | i | -0.51
CCN1C(=O)N(CC)C2C1N(CO)C(=O)N2CO (stereo not given) | i | 1.13
COC(=O)/C=C1\S/C(=N/N=C/c2ccco2)NC1=O | i | 0.09
CCOc1ccc(S(=O)(=O)n2cnc(C)c2)cc1 | i | 1.62
COCCNc1c2c(nc3c(-c4ccccc4)c(C)nn13)CCCC2 | i | -0.4
CCc1nc(NCCN2CCOCC2)c(C#N)c2c1CCCC2 | i | -0.17
CCOC(=O)C1CCN(c2c(-c3ccccc3)c3cc(Cl)ccc3[nH]c2=O)CC1 | i | -0.03
CC(=O)N(Cc1c(C)nn(-c2ccccc2)c1Cl)c1ccc(Cl)cc1 | i | 0.06
COc1ccc(C2=NOC(C)(c3nnc(-c4ccncc4)o3)C2)cc1 (stereo not given) | i | 1.36
COCCn1c(-c2ccc(OC)cc2)cnc1SCC(=O)Nc1ccc(OC)cc1OC | i | 1.33
CCOc1ccc(NC(=O)CSc2nc3cccnc3n2CC)cc1 | i | 0.37

In a second layout: entries from further up
KCNQ2 inh	KCNQ2 inh baseline	SMILES
i	-0.01	N#Cc1nc(COc2ccccc2F)oc1NCc1ccc(F)cc1
i	-1.55	CS(=O)(=O)Nc1ccc(C2=NN(C(=O)CCCC(=O)O)C(c3cccs3)C2)cc1 (stereo not given)
-6.47*	2*	O=C(Nc1ccccc1F)C(=Cc1sc(N2CCOCC2)nc1-c1ccccc1)C(=O)Nc1ccccc1F

More structures follow:
SMILES | KCNQ2 inh | KCNQ2 inh baseline
COC(=O)[C@H](CCSC)NC(=O)N1CCC(C)CC1 | i | 0.42
COc1cc(-c2nnc(SCC(=O)c3ccccc3)o2)cc(OC)c1OC | i | 1.26
Cc1sc(NC(=O)c2ccco2)c(C(Nc2ccccn2)c2ccccc2)c1C (stereo not given) | i | -0.06
COCCN1Cc2cccc(C(=O)NC3CCCCCC3)c2C1=O | i | -0.14
CC(C)(C)c1ccc(-n2ncc3c2CCCC3NC(=O)CCN2CCCO2)cc1 (stereo not given) | i | -0.43
CCc1ccc(OCC(=O)NNC(=O)Cc2ccc(S(=O)(=O)N3CCOCC3)s2)cc1 | i | -0.94
Nc1ccc(Oc2cc(N)cc(Oc3ccccc3)c2)cc1 | i | -0.34
Cc1ccccc1C(=O)Nc1ccccc1-c1nnn(CC(=O)Nc2ccc3c(c2)OCCO3)n1 | i | 0.77
CCOc1ccccc1CNC(=O)CCCn1ncn2c(cc3occc32)c1=O | i | 1.61
Cc1nc(-c2cccc(NS(=O)(=O)c3cccc4ccccc34)c2)cs1 | i | 0.82
COc1ccc(NC(=O)c2[nH]ncc2[N+](=O)[O-])cc1 | i | 0.37
Cc1nn(-c2ccccc2)c(C)c1C(=O)OCC(=O)NC(=O)NC1CCCC1 | i | 0.17
COc1ccccc1CNC(=O)COC(=O)c1ccc(S(=O)(=O)N2CCCC2)cc1 | i | 0.59
COc1ccccc1/C=C/C(=O)c1ccc(Cl)cc1 | i | 0.19
O=C(CNc1cc(S(=O)(=O)N2CCOCC2)ccc1NCC1CCCO1)Nc1ccccc1F (stereo not given) | i | -1.02
CCOc1ccccc1N1CCN(C(=O)c2ccc3c(c2)OCO3)CC1 | i | 1.12
COc1ccc(NC(=O)CS(=O)CC(=O)NCc2cccc(C(F)(F)F)c2)cc1 (stereo not given) | i | -0.07
COc1ccc(C2CC(c3cccc(C)c3)n3nc(N)nc3N2)cc1 (stereo not given) | i | 0.58
CC1(C)C2CCC(C2)C1C/C=N/NC(N)=S (stereo not given) | i | 1.92
COc1ccc(N2CCN(C(=O)c3ccc(CNc4c(N5CCOCC5)c(=O)c4=O)cc3)CC2)cc1 | i | 1.66
COc1cc(OC)cc(-n2nnnc2SCC(=O)NC2CCCC2)c1 | i | 0.83
Cc1ccc(OCC(=O)Nc2ccc3c(c2)OCCO3)cc1C | i | -0.86
COc1ccc(-n2nc(C(=O)NCC(=O)N3CCCC(C)C3)c3ccccc3c2=O)cc1Cl (stereo not given) | i | -0.59
COc1ccc(CN2C(=O)c3cccnc3C2=O)cc1S(=O)(=O)N1CC(C)Oc2ccccc21 (stereo not given) | i | -0.07
CCN(Cc1ccccc1)C(=O)c1cc2cc(OC)c(OC)cc2[nH]1 | i | 0.18
Following part:
SMILES | KCNQ2 inh | KCNQ2 inh baseline
O=C(NC1=NCCS1)c1ccc(Cl)c(S(=O)(=O)N2CCCC2)c1 | i | 1.35
COc1ccc(OC)c(Nc2nc(-c3sc(N)nc3C)cs2)c1 | i | 2.19
Cc1ccsc1C(=O)OCc1csc(-c2ccccc2)n1 | i | 0.81
CS(=O)(=O)N(CC(=O)NC1CCCC1)C1CCCCC1 | i | 0.22
Cc1ccc(/C=N/NC(=O)c2ccc(C(=O)N/N=C/c3ccc(C)s3)o2)s1 | i | -0.4
CCC(=O)c1ccc(OCC(=O)OC(C)C(=O)NCc2ccc3c(c2)OCO3)cc1 (stereo not given) | i | -0.36
O=C(CC1C(=O)NCCN1C/C=C/c1ccccc1)NCCc1cccnc1 (stereo not given) | i | 0.83
Cc1c(CCOC(=O)c2ccccc2)sc[n+]1Cc1ccccc1 | i | 0.84
Cc1ccc(-c2cc(C(=O)Nc3ccc(S(=O)(=O)Nc4cc(C)on4)cc3)c3ccccc3n2)c(C)c1 | i | -0.52
CCOC(=O)c1ccc(-c2c(-c3ccc4c(c3)OCO4)noc2-c2ccsc2)cc1F | i | -0.24
O=C(NCc1ccccc1)C1CCCN(S(=O)(=O)c2cccc3nonc23)C1 (stereo not given) | i | 0.59
CCOc1ccccc1C(=O)NC(C(=O)OCC(=O)Nc1nnc(-c2ccccc2)o1)C(C)C (stereo not given) | i | 0.92

7 records drawn at random from the list so far, as already listed:
SMILES | KCNQ2 inh | KCNQ2 inh baseline
Cc1c(CCOC(=O)c2ccccc2)sc[n+]1Cc1ccccc1 | i | 0.84
Nc1ccc(Oc2cc(N)cc(Oc3ccccc3)c2)cc1 | i | -0.34
COC(=O)[C@H](CCSC)NC(=O)N1CCC(C)CC1 | i | 0.42
COCCCN1CC(=O)N2C(c3cccc(OC)c3)c3[nH]c4ccccc4c3C[C@H]2C1=O (stereo not given in full) | i | 1.84
Cc1ccccc1S(=O)(=O)Cc1ccc(C(=O)NC2CCCCC2C)o1 (stereo not given) | i | -0.37
COc1ccc(C2=NOC(C)(c3nnc(-c4ccncc4)o3)C2)cc1 (stereo not given) | i | 1.36
Cc1nc(-c2cccc(NS(=O)(=O)c3cccc4ccccc34)c2)cs1 | i | 0.82

Only part of the results is shown (hit frequency here may not be typical).
